# Lassa entry inh: inhibitors of Lassa virus binding or cell entry | Lassa virus pseudotype entry inhibition, cell reporter; control for the full effect not named in the record | Potency, µM (titrated, usually from 37.9 µM), for the others: at the highest dose activity change, negative = inhibition, most hits filed as inhibitors | 1.2% of 300,000 active | AID 540256; active means well fitted inhibition curve with a large enough effect; inconclusive means small, poorly fitted or top-dose-only effect, or effect the other way; inactive means flat fitted curve, though single readings scatter; tested in HEK293 cells; also: % is scaled to controls: 0 for no effect and ±100 for the full control effect; nearly all actives have a fitted effect of over 50% in size; luciferase read-out
# Cruzain noTriton: inhibitors of Trypanosoma cruzi cruzain without detergent. purified cruzain, Z-FR-AMC fluorescence, no detergent. Potency, µM, without a hit: max response, negative = inhibition, usual class: inhibitors. 2.3% of 200,000 active. AID 1476;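 also: plate controls were enzyme without inhibitor for no effect and buffer without enzyme for full effect; nearly all actives have a fitted effect of over 40% in size; top concentration of the series not given in the record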
# Target sequence (P25779 123-467 limits assumed): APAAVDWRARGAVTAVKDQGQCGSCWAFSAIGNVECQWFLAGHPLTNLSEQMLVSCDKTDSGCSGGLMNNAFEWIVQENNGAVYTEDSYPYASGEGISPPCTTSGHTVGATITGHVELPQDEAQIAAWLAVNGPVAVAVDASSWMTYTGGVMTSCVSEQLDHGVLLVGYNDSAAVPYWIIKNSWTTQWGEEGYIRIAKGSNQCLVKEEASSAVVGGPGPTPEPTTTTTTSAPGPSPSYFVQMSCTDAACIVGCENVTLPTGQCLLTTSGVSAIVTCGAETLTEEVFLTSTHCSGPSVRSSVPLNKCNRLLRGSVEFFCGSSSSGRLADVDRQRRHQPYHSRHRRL
#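 Detergent-free condition (0.00005% Triton X-100) in acetate buffer pH 5.5 with DTT. 1.5 nM enzyme and compound were pre-mixed 15 min, then 2 uM Z-FR-AMC substrate added; reaction progress from fluorescence change between first and third reads (60 s).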
# SARS PLP yeast: SARS-CoV PLP inhibition in yeast; S. cerevisiae expressing SARS-CoV PLpro, growth rescue; control for the full effect not named in the record; Potency, µM (top dose mostly 32.9 µM), inactives show at the highest dose activity, positive = growth rescue; 0.19% of 330,000 active; AID 485353; active means well fitted rising curve with a large enough effect; inconclusive means small, poorly fitted or top-dose-only effect; inactive means no such curve, though single readings can be large or run the other way; also: 0% is about no effect; nearly all actives have a fitted effect of over 55% in size; growth read by luminescence after 48 h
# RE007 growth inh: less growth of the S. pombe RE007 Vpr strain; S. pombe RE007 Vpr strain, BacTiter-Glo ATP luminescence, 24 h; control for the full effect not named in the record; Potency, µM (doses to about 92.2 µM), without a hit: at the highest dose activity change, negative = less growth; 0.21% of 360,000 active; active = well fitted falling curve with a large enough effect; inconclusive = small, poorly fitted or top-dose-only effect; inactive = no such curve, though single readings can be large or run the other way;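 also: % is scaled to controls: 0 for no effect and ±100 for the full control effect; nearly all actives have a fitted effect of over 50% in size; the assay follows cell death caused by Vpr and the record does not say whether a fall means rescue or toxicity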
#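 Fission yeast RE007 carrying one integrated HIV-1 vpr copy, seeded at OD 0.01 in PMG+AL medium with 23 nL pinned compound. Grown 24 h at 30 degrees; viability read by BacTiter-Glo luminescence after 5 min.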
# MARV entry inh: blocks Marburg virus binding to or entry into cells; Potency, µM (highest dose often 37.8 µM), for the others: at the top dose activity change, negative = inhibition, usual class: inhibitors; 1.8% of 300,000 active; AID 540276; Marburg virus pseudotyped entry inhibition, cell reporter; control for the full effect not named in the record; about a third of the inactives were read at about 46 µM; active = well fitted inhibition curve with a large enough effect; inconclusive = small, poorly fitted or top-dose-only effect, or effect the other way; inactive = flat fitted curve, though single readings scatter; tested in HEK293 cells; about a fifth of its hits are not listed in these tables; also: % is scaled to controls: 0 for no effect and ±100 for the full control effect; luciferase read-out
# StopGo reporter: lowers the luciferase signal of an FMDV 2A StopGo reporter; human cells with a luciferase reporter of 2A StopGo recoding; control for the full effect not named in the record; Potency, µM (highest dose often 57.9 µM), for inactives: at the top dose signal change, negative = less light; 1.2% of 410,000 active; active = well fitted falling curve with a large enough effect; inconclusive = small, poorly fitted or top-dose-only effect; inactive = no such curve, though single readings can be large or run the other way; tested in HEK293T cells; also: % is scaled to controls: 0 for no effect and ±100 for the full control effect; nearly all actives have a fitted effect of over 45% in size; luciferase light after 4 h
# NS1 function inh: blocks influenza NS1 protein function | S. cerevisiae slowed by influenza A NS1, growth recovery by OD600 | Potency, µM (top dose mostly 46.1 µM), without a hit: at the top dose activity, positive = more growth | 0.4% of 270,000 active | AID 2326; active means well fitted rising curve with a large enough effect; inconclusive means small, poorly fitted or top-dose-only effect; inactive means no such curve, though single readings can be large or run the other way; also: nearly all actives have a fitted effect of over 50% in size
#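 Recovery from NS1-induced slow growth read by OD600 in budding yeast switched to galactose assay medium (pH 6.0, -URA) at 1:100 dilution. Compound 23 nl per well; the matching strain lacking NS1 serves as control.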
# Cruzain Triton: blocks cruzain activity in presence of Triton detergent; Potency, µM, for the others: max response, negative = inhibition, most hits filed as inhibitors; AID 1478; purified cruzain, Z-FR-AMC fluorescence, 0.01% Triton; P25779; 0.43% of 200,000 active;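 also: plate controls were neutral wells for no effect and buffer without enzyme for full effect; nearly all actives have a fitted effect of over 40% in size; top concentration of the series not given in the record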
#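 Read-out: AMC fluorescence (360 nm excitation, 450 nm emission), four reads over 2 min, first-to-third difference used. Conditions: cruzain 1.5 nM, Z-FR-AMC 2 uM, pH 5.5 acetate, 5 mM DTT, 0.01% Triton X-100.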
# An asterisk follows results filed as active; ? = inconclusive; . = not tested or not shown; & = joins results of further samples; [ ] = another dose, or the depositor's remark. Unless noted, calls follow the shape of the dose curve; as a rule, active = well fitted curve in the direction sought with a large enough effect; inconclusive = small, poorly fitted or top-dose-only effect, or another doubt; inactive = no such curve, though single readings can be large; an effect the other way counts as inactive or inconclusive. Potency is read from the fitted curve at half-maximal effect.
SMILES,Lassa entry inh,Cruzain noTriton,SARS PLP yeast,RE007 growth inh,MARV entry inh,StopGo reporter,NS1 function inh,Cruzain Triton
Cc1ccccc1NC(=O)c1ccc(F)c(S(=O)(=O)N2CCN(c3ccccc3F)CC2)c1,-17%[46.1 µM],-28%,.,.,.,?,.,0.7%
N/C(=N\OC(=O)/C=C/c1ccccc1Cl)c1ccncc1,?,.,-7%,-16%,?,-12%,.,.
CCOC(=O)C1=NNC(C(=O)c2ccc(OC)cc2)C1c1ccccc1 (configuration not stated),-23%,-12%,1%,8%,-26%[46.1 µM],-14%,-1%,-5.7%
CCc1ccccc1NC(=O)Cn1c(=O)nc(-c2ccccc2)c2ccccc21,3%[46.1 µM],-7%,.,.,.,4%,.,-2.9%
CCCN1CCN(CCCNC(=O)c2ccc3nc(N4CCCCC4)sc3c2)CC1,.,.,18%,-1%,.,54%[activator],-3%,.
COc1ccc(C(=O)c2cn(Cc3ccc(C)cc3)c3cc4c(cc3c2=O)OCO4)cc1,?,-7%,.,.,?,-25%,.,0.5%
Cc1nc2ccc(NC(=O)c3cc(Cl)ccn3)cc2s1,?,.,2%,-16%,?,-1%,1%,.
CN(CC(=O)Nc1ccc(F)c(F)c1F)C(=O)/C=C/c1ccco1,?,.,-17%,0%,?,11%,.,.
CC(C)c1ccc(NC(=O)CN2C(=O)CSc3ccc(S(=O)(=O)N4CCCC4)cc32)cc1,-14%[46.1 µM],-1%,.,.,.,-4%,.,-6.4%
O=C(NC(Cc1ccccc1)C(=O)O)/C(=C/c1ccccc1)NC(=O)c1ccccc1 (configuration not stated),-10%,1%,21%,-7%,-3%,7%,13%,-1.2%
CC(C)Oc1ccc(S(=O)(=O)N2CCOCC2)cc1NC(=O)CC1OC(=O)c2ccccc21 (configuration not stated),1%,.,-2%,-5%,-5%,-10%,.,.
CC(C)c1cnc2c(c1SCC(=O)N1CCCCC1)c(=O)n(C)c(=O)n2C,-22%[46.1 µM],-4%,.,.,.,2%,.,-1.9%
COc1ccccc1NC(=O)Cc1cccs1,13%,-3%,0%,-4%,-15%[46.1 µM],27%,14%,4.9%
COCCCn1c(SC(C)C(=O)Nc2c(C)n(C)n(-c3ccccc3)c2=O)n[nH]c1=O (configuration not stated),-3%,.,-1%,0%,8%,-4%,.,.
Cc1noc(NS(=O)(=O)c2ccc(N/C=C/C(=O)c3ccc4c(c3)OCO4)cc2)c1C,12%,?,-15%,?,?,18%,-39%,-7.4%
O=c1cc(-c2ccc(O)cc2)oc2ccc(O)cc12,?,-12%,-2%,-23%,-17%&-17%[46.1 µM],27%&41%,.,-0.1%
COc1ccc(C(=O)NC(C(=O)NCC(=O)Nc2c(C)cccc2C)C(C)C)cc1 (configuration not stated),0%,-1%,1%,-17%,-37%,-9%,9%,-2.0%
CCOc1ccc(-n2c(=O)c3c(C)c(C)sc3n(CC(=O)N3CCC(C)CC3)c2=O)cc1,2%[46.1 µM],-6%,.,.,-8%[46.1 µM],-19%,.,-1.8%
Oc1ccccc1Nc1nc(NCc2ccccc2)c2ccccc2n1,?,.,-4%,7%,?,?,-10%,.
O=C1OC(Nc2ccc(Br)cn2)c2ccccc21 (configuration not stated),19%,-8%,-7%,13%,5%,11%,?,8.8%
Fc1ccc(CNCCc2ccc3c(c2)OCO3)cc1,.,.,2%,-19%,.,6%,-4%,.
COc1ccc(CCNC(=O)COC(=O)c2ccc(Br)o2)cc1,1%,-4%,2%,16%,20%,-7%,-36%,5.4%
CC1(C)NC(=O)N(CC(O)CN(c2ccccc2)S(=O)(=O)c2ccccc2)C1=O (configuration not stated),14%[46.1 µM],.,7%,4%,5%[46.1 µM],0%,-3%,.
Cn1c(=O)c2c(ncn2CC(=O)N2CCN(C(=O)c3ccco3)CC2)n(C)c1=O,.,.,1%,-7%,-1%[46.1 µM],8%,1%,.
O=C(NC(=S)N1CCN(C/C=C/c2ccccc2)CC1)c1c(F)cccc1F,-9%,-14%,21%,5%,?,-21%,1%,-4.3%
# Next section
SMILES,Lassa entry inh,Cruzain noTriton,SARS PLP yeast,RE007 growth inh,MARV entry inh,StopGo reporter,NS1 function inh,Cruzain Triton
COc1ccccc1N1CCN(C(=O)COc2cccc3ccccc23)CC1,-3%,.,-13%,-2%,-1%,-22%,-65%,.
CCOCCc1nn2c(=O)cc(CSCC(=O)Nc3ccccc3)nc2s1,.,.,7%,3%,.,-13%,14%,.
CCc1sc(C(=O)N(CCCOC)c2c(N)n(CC(C)C)c(=O)[nH]c2=O)cc1C,-1%,.,-2%,-13%,3%,-17%,.,.
O=C(Nc1cc(Cl)cc(Cl)c1)N1CCCN(Cc2ccccc2)CC1,5%,.,1%,-16%,-21%,-17%,-2%,.
COc1ccc(CCNc2ncnc3c2nnn3Cc2ccccc2)cc1,?,.,-1%,3%,-16%,?,10%,.
CCOc1ccc(C(=O)NC2CC3CCCC(C2)N3Cc2ccccc2)cc1 (configuration not stated),?,.,2%,-20%,?,-19%,4%,.
NC1=NC2(CCCCCC2)n2c(nc3ccccc32)N1,1%,3%,1%,-4%,?,-20%,0%,-1.0%
COc1cc(Cl)c(C)cc1NC(=O)c1ccc2c(c1)OCO2,.,.,4%,6%,.,26%,22%,.
CCn1c(/N=C/c2ccc(OC)cc2O)nc2ccccc21,.,.,2%,-22%,.,-5%,10%,.
C[C@H](NC(=O)C1CC(=O)N(c2ccc3c(c2)OCCO3)C1)C(=O)NC1CCCC1 (some centres not stated),0%[46.1 µM],.,4%,-7%,19%[46.1 µM],21%,10%,.
Cc1cccc(C)c1NC(=O)C(c1ccccc1)N1CCC2(CC1)OCCO2 (configuration not stated),19%,.,.,1%,-1%,2%,-11%,.
O=C(O)c1oc2ccccc2c1CSc1ccc(Cl)cc1,14%[46.1 µM],.,1%,4%,4%[46.1 µM],-4%,-62%,.
CCOC(=O)c1cccc2c(=O)c(C(=O)c3ccc(Cl)cc3)c(C(=O)OC)[nH]c12,4%,0%,19%,-6%,?,3%,-2%,-1.5%
COc1ccc(C=C2C(=O)NC(=S)NC2=O)cc1,16%,.,.,4%,21%,?,.,.
COc1ccc(OCCC(=O)OCC(=O)NCCC2=CCCCC2)cc1,-1%,.,-13%,-17%,2%[46.1 µM],-5%,.,.
CCOC(=O)C(NCc1ccccc1OC)(NC(=O)CC)C(F)(F)F (configuration not stated),-4%,0%,5%,37%,-17%[46.1 µM],-8%,-5%,2.5%
CCC(/C=C1\Sc2ccc(OC)cc2N1CC)=C\c1sc2ccc(OC)cc2[n+]1CCCS(=O)(=O)[O-],?,.,-5%,0%,?,18µM*,.,.
Cc1ccc(CS(=O)(=O)CCC(=O)NCc2ccc(F)cc2)cc1,.,.,3%,18%,.,-6%,-2%,.
O=Cc1ccc(OCc2nnsc2Cl)cc1,-10%,.,1%,9%,5%[46.1 µM],10%,.,.
O=C(NCc1ccc2c(c1)OCO2)c1ccc2c(c1)N(Cc1ccccc1F)C(=O)c1ccccc1S2,?,?,.,.,.,-3%,.,-0.9%
CN1C(=O)CC(N2CCN(Cc3ccc(Cl)cc3)CC2)C1=O (configuration not stated),13%,-3%,22%,-19%,3%,-1%,-56%,0.4%
CC(C)Sc1nc2sc3c(c2c(=O)n1Cc1ccccc1)CCCC3,?,-4%,.,.,.,-2%,.,-2.4%
COc1ccc(OC)c2c1sc(=NC(=O)C1CC1)n2C,.,.,-1%,-11%,.,-25%,-9%,.
Cc1ccc(CC(=O)NCC(c2ccco2)N(C)C)cc1C (configuration not stated),-6%,.,-2%,2%,-20%[46.1 µM],0%,6%,.
CCOc1ccccc1C(=O)NCC(c1ccc(N(C)C)cc1)N1CCc2ccccc21 (configuration not stated),2%[46.1 µM],3%,.,.,.,-16%,.,-2.5%
# Next section.
SMILES,Lassa entry inh,Cruzain noTriton,SARS PLP yeast,RE007 growth inh,MARV entry inh,StopGo reporter,NS1 function inh,Cruzain Triton
O=C(c1cccc([N+](=O)[O-])c1)N1CCOCC1,-12%,8%,19%,-6%,-4%,-3%,18%,-0.3%
CN1CCN(C(=O)Cc2nc3ccccc3[nH]2)CC1,13%,6%,3%,-23%,-6%,1%,6%,0.6%
Cc1ccc(-n2nnc(-c3ccnc4ccccc34)n2)cc1,.,.,-1%,-12%,.,47%[activator],-4%,.
CCOC(=O)c1c(NC(=O)c2ccc(S(=O)(=O)N3CCOCC3)cc2)sc2c1CC(C)(C)NC2(C)C,.,.,-2%,-1%,.,4%,9%,.
CCC(C)[C@H](N)c1nnc(SCc2ccc(Cl)c(Cl)c2)o1 (some centres not stated),11%[46.1 µM],5%,.,.,11%[46.1 µM],-18%,.,2.9%
CCOC(=O)C1(P(=O)(c2ccc(Cl)cc2)c2ccc(Cl)cc2)CCC1,-7%,10%,?,-6%,3%,-21%,-3%,-1.1%
[2H]C([2H])(CCOS(N)(=O)=O)c1ccccc1,.,.,8%,4%,.,-15%,15%,.
O=C1C2CC=C(Cl)CC2C(=O)N1c1ncn[nH]1 (configuration not stated),4%,12%,16%,-2%,-1%[46.1 µM],-20%,5%,0.4%
CN1CCN(C(=O)C2CCCCC2C(=O)O)CC1 (configuration not stated),.,-2%,11%,2%,.,-3%,-5%,7.2%
CCC(C(=O)OC)n1cnc2c(nnn2-c2ccc(C)cc2)c1=O (configuration not stated),.,.,-5%,22%,.,-6%,-5%,.
CN(C(=O)C1CCOC1)c1nnc(C2CCOC2)s1 (configuration not stated),1%,14%,-1%,1%,?,14%,-13%,-0.1%
CN1C2=C(C#N)C(c3ccccc3)(C(F)(F)F)NC(=O)N2c2ccccc21 (configuration not stated),1%,-13%,1%,-23%,-5%,0%,4%,3.0%
C=CCN=C1N[C@@H](c2cccc(C(F)(F)F)c2)C(C(=O)OC)=C(C)N1CC,.,.,-4%&1%,-12%,.,-17%,13%&1%,.
O=c1ccn(Cc2ccc(F)cc2)c2ccnc(C(F)(F)F)c12,2%,-9%,-7%,-3%,?,?,7%,-5.0%
COc1ccc(CN(CC(=O)NC2CCCC2)C(=O)CN2C(=O)COc3ccccc32)cc1,-23%,.,0%,1%,4%[46.1 µM],-14%,-8%,.
CCCCN(C(=O)CSc1nnc2ccccn12)c1c(N)n(Cc2ccccc2)c(=O)[nH]c1=O,-7%,?,-18%,-5%,?,-11%,10%,-2.7%

# From PubChem BioAssay
